Compound activity: PubChem BioAssay, several laboratories
PrP 5UTR inh = inhibition of PrP 5' UTR reporter expression; 340,000 tested, 0.35% active; inhibition, % (no concentration beside the values); cell-based PrP 5' UTR mRNA reporter, plate reader;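 active = every replicate at 50% or more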;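 note: 0 = median of the neutral control wells; tested in H4 reporter cells; numbers are from one replicate; inactives centre near -14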
Autofluor counter = compound fluorescence in toxin protease inhibitor counterscreen. compound autofluorescence counterscreen, microsphere flow cytometry; hits give high values. fluorescence intensity (test concentration not listed). 360,000 tested, 3.1% active. AID 624483;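 active = at least 3 SD above the mean of all compounds, about 16000 in these data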;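 note: 100 nL of 1 mM stock went into each well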
An asterisk follows results filed as active.

SMILES	PrP 5UTR inh	Autofluor counter
CN(C)c1cccc(C(=O)N/N=C/c2ccccc2F)c1	23.0	3973
O=c1oc(C2(O)CCCCC2)cc2ccc(/C=C/c3ccc(F)cc3)cc12	-18.3	4336
CCN(Cc1nc2ccccc2c(=O)[nH]1)C(=O)COc1ccccc1-c1ccccc1	2.3	3862
COC(=O)[C@@H](CC(C)C)N(Cc1ccccc1)S(=O)(=O)N(Cc1ccccc1)[C@@H](CC(C)C)C(=O)OC	-0.3	2904
CCCC(=O)Nc1cc(OC)c(NC(=S)Nc2ccc(CC)cc2)cc1OC	-19.2	3736
O=C(CC(=O)OCc1ccccc1)OCc1ccccc1	-0.6	4252
CN1C[C@@H]2[C@@H]3C(=O)N(Cc4ccccc4)C(=O)[C@@H]3[C@](Cc3ccccc3)(C1=O)N2C(=O)c1ccc(Cl)c(Cl)c1	-44.0	4106
O=C1[C@H](Cc2ccccc2)NCCCC[C@@H](c2ccc(Cl)cc2)N1Cc1ccccc1	-11.7	3908
O=C(C(=O)N(Cc1ccccc1)Cc1ccccc1)c1c(-c2ccccc2)[nH]c2ccccc12	-14.3	4033
COc1ccc(NC(=O)CCNS(=O)(=O)c2ccccc2F)cc1S(=O)(=O)N1CCOCC1	-3.3	3026
C=CCn1c(SCC(=O)c2ccc(O)c(O)c2)nnc1-c1cccc(OC)c1	-8.6	3731
COC(=O)[C@H](Cc1ccccc1)NC(=O)Cn1ccc(NC(=O)OCc2ccccc2)nc1=O	-25.7	3785
N#CCC(=O)N/N=C\c1cc(Br)ccc1OC/C=C/c1ccccc1	-40.6	5742
N#CC1(NC(=O)COC(=O)C2=COCCO2)CCCCC1	-20.9	3417
Cc1ccc2ccccc2c1CSc1nc(N)nc2c1ncn2CC(C)C	-6.0	2838
COc1ccccc1/C=C/C1=NC(=C\C=C/c2ccccc2)/C(=O)O1	-6.6	3554
CC[C@H]1C=C[C@@H](C(C(=O)OC)C(=O)OC)CN1C(C)=O	-4.4	4374
C=CCCC1(C(C)C)C(=O)NC(=S)NC1=O	-13.3	2891
CC(C)(C)OC(=O)N1CCCC(C(=O)Nc2ccc(C(=O)NCCc3ccccc3)cc2)C1 (centres undefined)	-19.4	3416
CC1(C)CC(=O)C(c2ccccc2)(c2ccccc2)C(=O)C1	1.0	3665
Nc1c(Cl)cc(C2=NCCn3nc4cc([N+](=O)[O-])ccc4c32)cc1Cl	-21.7	3990
CCOc1ncccc1C(=O)Nc1cc(S(=O)(=O)N2CCCCC2)ccc1OC	4.9	3271
COC1C(O)C(C)OC(OC2CCC3(C)C(CCC4C3C(O)CC3(C)C(C5=CC(=O)OC5)CCC43O)C2)C1O (centres undefined)	87.4*	3161
CN(C(=O)c1ccc(NC(=O)Cc2ccc(NC(=O)C3CCN(C(=O)c4ccccc4)CC3)cc2)cc1)C1CC1	-23.1	2280
CC(C)NC(=O)N(C)C[C@H]1Oc2ccc(NS(=O)(=O)c3ccc(Cl)cc3)cc2CC(=O)N([C@@H](C)CO)C[C@@H]1C	-21.4	3742
COc1ccc(-c2oc(=O)c3cc(OC)c(OC)cc3c2/C=C/c2cccc([N+](=O)[O-])c2)cc1	-3.1	2869
CCOC(=O)C(C)C(C)=O (centres undefined)	-19.0	6010
C[C@H](CO)N1C[C@H](C)[C@@H](CN(C)Cc2ccc(Oc3ccccc3)cc2)Oc2ccc(NC(=O)Cn3cnnn3)cc2C1=O	-9.3	4591
O=CN(CCNc1ccccc1)c1ccccc1	-10.0	2883
CC(=O)Nc1cc2c3ccccc3ccc2c2ccccc12	7.6	3781
C[C@@H]1ON(C)[C@H]2C[C@H]3c4cc(-c5cccc(F)c5)ccc4CCN3C(=O)[C@@H]12	-18.8	3735
COCCNC(=O)N1[C@H]2CC[C@@H]1C(C(=O)OC)=C(c1ccc(OC)c(OC)c1)C2	-11.1	3662
O=S(=O)(c1cccc2ccccc12)N1CCC2CC1c1cc(-c3ccc(F)cc3)ccc12 (centres undefined)	0.9	3091
COC(=O)[C@H](Cc1ccccc1)NS(=O)(=O)c1ccc(F)cc1Br	-20.4	3639
CN(C)C1=NC[C@H](Cc2ccccc2)N1CC1CCCCCC1	-17.9	4763
CC(C)NC(=O)N(C)C[C@@H]1Oc2c(NC(=O)Nc3ccccc3)cccc2C(=O)N([C@H](C)CO)C[C@H]1C	-28.4	3236
COC(=O)[C@@H](Cc1ccccc1)NS(=O)(=O)N[C@H](Cc1ccccc1)C(=O)OC	-7.7	3955
O=C(COC(=O)c1cccc(F)c1)NC(=O)NC1CCCC1	-15.5	3861
CC(C)(C)OC(=O)N[C@@H](C(=O)OC(C)(C)C)c1ccc(Br)cc1	-14.3	4178
O=S(=O)(NCc1ccccc1)[C@@H]1CC2C=CC1C2 (some centres undefined)	-16.7	3070
CCCSc1ccc([C@@H]2[C@H]3C(=O)N(C)C(=O)[C@H]3[C@]3(C(=O)OC)CCCN23)cc1OC	-4.2	3875
CCOC(=O)c1ccccc1NC(=O)C1CC(=O)N(C2CCCC2)C1 (centres undefined)	-7.3	3656
CC(=O)C1(O)CCC2C3CCC4CC(=O)CCC4(C)C3C(=O)CC21C (centres undefined)	-6.9	3561
COC(=O)C1=C(C(=O)OC)[C@]2([C@H]3CC=CCN[C@@H](Cc4ccccc4)C(=O)N3Cc3ccccc3)C=C[C@H]1O2	-14.0	4297
O=C(NCc1ccccc1)c1cccc2c1C(=O)c1ccc(/C=C/c3ccccc3)cc1S2(=O)=O	-17.8	2786
COc1ccc(CC2NCC(O)C2OC(C)=O)cc1 (centres undefined)	77.0*	6266
CC(C)C[C@H]1CNC(=S)N1CC1CCCN1C[C@H](Cc1ccc(O)cc1)N1C[C@H](Cc2ccccc2)N(CC2CCCCC2)C1=S (some centres undefined)	66.6*	3752
O=C(C[C@H]1C/C=C\C[C@H](NC(=O)OCC2c3ccccc3-c3ccccc32)C(=O)OC[C@H]2CCCN2C1=O)NCCO	-18.9	3950

A second format for two compounds above:
The line under a structure holds: PrP 5UTR inh | Autofluor counter
- CC(C)(C)OC(=O)N[C@@H](C(=O)OC(C)(C)C)c1ccc(Br)cc1
    -14.3 | 4178
- O=S(=O)(NCc1ccccc1)[C@@H]1CC2C=CC1C2 (some centres undefined)
    -16.7 | 3070

Other entries:
SMILES	PrP 5UTR inh	Autofluor counter
C[C@H](CO)N1C[C@H](C)[C@@H](CN(C)C(=O)Nc2ccc3c(c2)OCO3)Oc2c(NS(=O)(=O)c3ccc(F)cc3)cccc2C1=O	-4.8	4021
C[C@@H]1[C@H](c2ccccc2)Oc2ccc(Cl)cc2S(=O)(=O)N1CC1CCCN1C(=O)OC(C)(C)C (some centres undefined)	-7.0	3714
C=CC[C@@H](Cc1ccc(F)cc1)C(=O)OC[C@@H]1CCCN1C(=O)[C@H](CC=C)CC(=O)N[C@H](CO)Cc1ccccc1	-3.1	3988
C#CCOCCOCCOCCNc1nc(N2CCN(C(=O)Cn3cc(CCCCN)nn3)CC2)nc(N2CCN(C(=O)[C@H]([C@@H](C)CC)n3cc(CCCN=C(N)N)nn3)CC2)n1	-17.6	4284
O=C(Cn1nc2ccccc2n1)N/N=C/c1cc(Cl)cc([N+](=O)[O-])c1O	-25.3	4032
COc1cc2c(c(OC)c1O)-c1ccc(OC)c(=O)cc1C(NC(=O)C(F)(F)F)CC2 (centres undefined)	54.4*	2940
COc1ccc2ccccc2c1C1NC(=O)c2ccccc2N1 (centres undefined)	-23.8	4508
COC(=O)C1=C(c2ccccc2OCc2ccccc2)C[C@@H]2CC[C@H]1N2C(=O)NCc1ccc([N+](=O)[O-])cc1	-9.2	2948
CCN1C[C@@H]2[C@@H]3C(=O)N(Cc4ccccc4)C(=O)[C@@H]3[C@](Cc3ccccc3)(C1=O)N2C(=O)c1ccc(Cl)c(Cl)c1	-11.5	4046
Cc1cccc(NC(=O)c2nc[nH]c2C(=O)N[C@H](C)c2ccccc2)c1	-10.8	4396
CCCCN1CCC(CN2C(=O)C(=O)NC[C@@H]2Cc2ccccc2)CC1	-2.0	3590
Cc1cn(CC(=O)NCc2ccc(N(C)C)cc2)c(=O)[nH]c1=O	-18.8	3561
COC(=O)C1=C(c2ccc(-c3ccccc3)c(F)c2)C[C@@H]2CC[C@H]1N2C(=O)NCc1ccc(F)cc1	-13.5	3056
NC(=O)c1cc([N+](=O)[O-])ccc1NCc1ccc(N)cc1	74.1*	3882
COc1cccc(C2c3cc4c(cc3OC(N3CCCC3)C2C)OCO4)c1O (centres undefined)	-10.7	3703
NC(N)=Nc1ccc(C=C2C=Cc3ccccc32)cc1	-28.0	3675
COc1ccc([C@H]2CC(=O)C=C(c3cccc(F)c3OC)C2)cc1	-25.0	3747
O=C(CSc1nc2ccccc2s1)N/N=C/c1ccc(C(=O)O)cc1	-25.1	3380
COc1cc(C(=O)O/N=C2\C=CC(=O)C=C2C)cc(OC)c1OC	-6.6	2477
Cc1ccc(S(=O)(=O)/N=C2/C=C(Sc3ncn[nH]3)C(=O)c3ccccc32)cc1	-39.5	6888
CCOC(=O)c1ccc(-n2cccc2/C=C2\NC(=O)NC2=O)cc1	-34.7	3682
COC(=O)C1=C(c2ccc3ccccc3c2)C[C@@H]2CC[C@H]1N2C(=O)NCc1ccc(C(F)(F)F)cc1	-21.2	2735
CC1[C@H]2Cc3ccc(O)cc3[C@]1(C)CCN2C (some centres undefined)	12.2	6813
ON=C1CCCCCCCC1	-26.4	3113
CC(C)NC(=O)N(C)C[C@H]1Oc2c(NC(=O)C3CCCCC3)cccc2C(=O)N([C@H](C)CO)C[C@@H]1C	-26.4	4114
CC(C)(S)[C@@H](N)C(=O)O	64.1*	5004
CC(C)C[C@@H](CN)NC(=O)c1nc[nH]c1C(=O)N[C@@H](CC(=O)O)C(=O)CNC[C@H](C)NC(=O)c1nc[nH]c1C(=O)N[C@@H](CC(=O)O)C(=O)O	9.8	3891
Cc1cccc2c(=O)n3c(cc12)-c1[nH]c2ccccc2c1CC3	-21.8	3301
COc1cc2c(cc1NC(=O)C(Cl)Cl)-c1ccc(NC(=O)C(Cl)Cl)cc1C2	36.7	3392
COc1cccc2c1C(=O)c1c(O)c3c(c(O)c1C2=O)CC(O)(C(C)=NO)CC3OC1CC(N)C(O)C(C)O1 (centres undefined)	-6.1	3609
COc1ccc(CNCCCn2cnc(C(=O)Nc3ccc(C)c(C)c3)n2)cc1	-17.1	3369
COc1ccc([C@H]2CC(=O)C=C(c3ccc(NC(C)=O)cc3)C2)cc1OC	2.6	3819
C[C@@H]1C[C@H]2[C@@H]3C[C@H](F)C4=CC(=O)C=C[C@]4(C)[C@@]3(Cl)[C@@H](O)C[C@]2(C)[C@H]1C(=O)COC(=O)C(C)(C)C	26.5	6274
COc1ccc([C@@H]2CC=C(C(=O)O)[C@H](c3ccccc3F)N2S(=O)(=O)c2ccccc2C)cc1	-17.1	3687
COC(=O)c1cc(C)nc2c1c(C)nn2-c1ccccc1	-14.4	3588
c1ccc(-c2ncnc3ccccc23)cc1	-7.7	4314
Cc1ccccc1N=Cc1ccc[nH]1	-26.6	3663
NC(=O)NN=C1CC2CC1C1C=CCC21 (centres undefined)	-10.8	2965
OCC1OC2C(NC(=S)N2c2ccccc2)C(O)C1O (centres undefined)	-16.4	3494
CC(=O)NC1CC2CCCC(C1)N2C(=O)Nc1cccc(C)c1 (centres undefined)	-18.6	4112
C[C@H](CO)N1C[C@H](C)[C@@H](CN(C)C(=O)NC2CCCCC2)Oc2ccc(NC(=O)C3CC3)cc2C1=O	-11.1	3080
CN1[C@@H]2CCC[C@H]1CC(=O)C2	-13.8	6208
CC(C)Oc1cccc(C(=O)N/N=C/c2ccoc2)c1	-35.0	5699
O=C(C[C@H]1C/C=C\CC[C@H](Cc2ccc(F)cc2)C(=O)OC[C@@H](Cc2c[nH]c3ccccc23)NC1=O)NCCO	-29.7	3608
O=C1c2ccccc2C(=O)N1CCc1c(-c2ccccc2)[nH]c2ccccc12	-8.9	3824
O=CNc1ccccc1	-6.6	5134
Cc1cc(C(=O)N/N=C/c2ccc([N+](=O)[O-])cc2)c(C)o1	-44.7	4617
O=[N+]([O-])c1ccc(C=Nc2ccc(Cl)c([N+](=O)[O-])c2)s1	-23.9	4314
C/C(=N\NC(=O)C(=O)Nc1cccc(C(F)(F)F)c1)c1ccc(Cl)s1	-3.9	9909
CCCCCCCCCCCCCCCC[N+](C)(C)CCN(Cc1ccc(OC)cc1)c1ncccn1	12.2	6518
CN(C)[C@@H]1C(=O)C(C(N)=O)=C(O)[C@@]2(O)C(=O)C3=C(O)c4c(O)ccc(Cl)c4[C@@H](O)[C@H]3C[C@@H]12	-2.1	5794
O=C1c2ccccc2C(=O)N1c1ccccc1	-11.6	5120
CC(OC(=O)C1=Cc2ccccc2OC1)C(=O)NCC1CCCO1 (centres undefined)	3.0	3747

Compounds above that contain an NH in an aromatic ring, in the order listed:
SMILES	PrP 5UTR inh	Autofluor counter
CCN(Cc1nc2ccccc2c(=O)[nH]1)C(=O)COc1ccccc1-c1ccccc1	2.3	3862
O=C(C(=O)N(Cc1ccccc1)Cc1ccccc1)c1c(-c2ccccc2)[nH]c2ccccc12	-14.3	4033
Cc1cccc(NC(=O)c2nc[nH]c2C(=O)N[C@H](C)c2ccccc2)c1	-10.8	4396
Cc1cn(CC(=O)NCc2ccc(N(C)C)cc2)c(=O)[nH]c1=O	-18.8	3561
Cc1ccc(S(=O)(=O)/N=C2/C=C(Sc3ncn[nH]3)C(=O)c3ccccc32)cc1	-39.5	6888
CC(C)C[C@@H](CN)NC(=O)c1nc[nH]c1C(=O)N[C@@H](CC(=O)O)C(=O)CNC[C@H](C)NC(=O)c1nc[nH]c1C(=O)N[C@@H](CC(=O)O)C(=O)O	9.8	3891
Cc1cccc2c(=O)n3c(cc12)-c1[nH]c2ccccc2c1CC3	-21.8	3301
Cc1ccccc1N=Cc1ccc[nH]1	-26.6	3663
O=C(C[C@H]1C/C=C\CC[C@H](Cc2ccc(F)cc2)C(=O)OC[C@@H](Cc2c[nH]c3ccccc23)NC1=O)NCCO	-29.7	3608
O=C1c2ccccc2C(=O)N1CCc1c(-c2ccccc2)[nH]c2ccccc12	-8.9	3824

An excerpt (hit frequency here may not be typical).
